Mtb hypoxia rep: PubChem AID 1159583; M. tuberculosis hypoxia-regulated fluorescent reporter, fluorescence; fluorescence inhibition, % (no concentration beside the values); 0.1% of 300,000 active;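 active = 35 to 45% if threefold the growth effect, above 45% if 1.5-fold the growth effect; inactive = the rest, general growth blockers included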;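 note: wells of about 50 µL received 100 nL stock; 0% = vehicle wells and 100% = reference inhibitor wells; whole bacteria with a GFP reporter of the hypoxia response; strong numbers were not always called active; many hits fall short of the cut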
BJeLR lethal: MLPCN primary cell-based screen for lethality selective to Ras in HRASV12 cells; BJeLR (HRASV12) viability, CellTiter-Glo ATP luminescence, 48 h; reference of the scale not given here; inhibition, % (test concentration not listed); AID 1554, 2009; 0.17% of 300,000 active;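 active = replicate mean above 50%; inconclusive = above 50% but judged a plate artefact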;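 note: 50 nL library stock added to about 25 µL; numbers are from one replicate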
Sa RN4220 lethal: growth inhibition of S. aureus RN4220, primary screen, OD600. 16 h. inhibition, % (no concentration beside the values). 0.33% of 330,000 active;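 active = z-score of -3 or lower and OD600 up to 0.18 on both plates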;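 note: plate controls were untreated cells for no effect and reference antibiotic for full effect; stock transfer was 100 nL into about 80 µL; one replicate is shown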
Autofluor counter: compound fluorescence in toxin protease inhibitor counterscreen; compound autofluorescence counterscreen, microsphere flow cytometry; active compounds read high; fluorescence intensity (concentration not given with the values); 3.1% of 360,000 active;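 active = at least 3 SD above the mean of all compounds, about 16000 in these data; inconclusive = too few beads counted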;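 note: 100 nL of 1 mM stock went into each well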
ugtP null kill: growth inhibition of ugtP-null S. aureus, primary screen, RN4220 ugtP deletion, OD600 | AID 1259309, 2017 | 0.54% of 330,000 active | 16 h; some inactives read as strong as hits | growth inhibition, % (no concentration beside the values);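 active = z-score under -3 and OD600 up to 0.15 on both plates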;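 note: plate controls were untreated wells for no effect and antibiotic for full effect; wells of about 80 µL received 100 nL stock; the first replicate is given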
PrP 5UTR inh: inhibition of PrP 5' UTR reporter expression; 0.35% of 340,000 active; cell-based PrP 5' UTR mRNA reporter, plate reader; inhibition, % (concentration not given with the values);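 active = every replicate at 50% or more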;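 note: 0 = median of the neutral control wells; tested in H4 reporter cells; numbers are from one replicate; inactives centre near -14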
Mtb hypoxia rep growth: recorded beside Mtb hypoxia rep, whose call it bears; growth inhibition, %; measured here: M. tuberculosis growth (absorbance);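 0% = vehicle and 100% = reference antibiotic; read after six days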
* marks the source's active call; other numbers are inactive results; ? = inconclusive; / = no result given.

SMILES | Mtb hypoxia rep | Mtb hypoxia rep growth | BJeLR lethal | Sa RN4220 lethal | Autofluor counter | ugtP null kill | PrP 5UTR inh
Oc1ccccc1-c1cc(C(F)(F)C(F)F)nc(-c2ccccc2)n1 | 11 | 1 | -3 | 2.0 | 11796 | 16 | -15
C/C=C/C=[N+](\[O-])C(C)/C(=N/O)c1ccc(F)cc1 (configuration not stated) | / | / | -13 | / | 16840* | / | -11
O=C(Cn1[nH]c(=O)c2ccccc2c1=O)NCCN1C(=O)S/C(=C\c2ccccc2)C1=O | 2 | 1 | / | 7.0 | 3028 | 1 | 1
COc1ccc(NCc2nc3ccccc3n2CCOc2ccc(C)cc2)cc1 | 2 | 8 | -7 | -4.4 | 2449 | -3 | -53
CCCc1nnc(NC(=O)c2c(O)c3c([nH]c2=O)CCCC3)s1 | 6 | 12 | 3 | 4.7 | 9132 | 1 | -36
CCOCCCn1c(=S)[nH]c2cc(C(=O)NCCOC)ccc2c1=O | 7 | 10 | -5 | -2.3 | 19971* | 0 | -23
Cc1onc(-c2c(F)cccc2Cl)c1C(=O)NC(C)c1ccccc1 (configuration not stated) | -20 | 3 | 4 | 8.5 | 3038 | 7 | -3
COc1cc2c(cc1OC)C(CC#N)=NC(C)(C)C2 | 7 | 1 | 6 | -6.2 | 2545 | 4 | -4
O=C(Cc1ccccc1)c1ccc(Cl)cc1 | 22 | 23 | -3 | 3.6 | 3769 | 8 | -46
Cc1cccc(NC(=O)Nc2cnccn2)c1 | -2 | -8 | 4 | -0.8 | 2064 | -2 | -26
CCOc1ccc(N2C(=O)S/C(=C\c3cc(OC)c(OC)c(OC)c3)C2=O)cc1 | 3 | 16 | 9 | 5.4 | / | -7 | -33
COc1ccc(S(=O)(=O)Nc2cccc(-c3ccc(N4CCCCCC4)nn3)c2)c(OC)c1 | 10 | 2 | 0 | -1.8 | 6048 | 0 | -60
COc1ccc(C(=O)C2CCCN(C(=O)Cc3c(C)noc3C)C2)cc1OC (configuration not stated) | 3 | -4 | 5 | 3.1 | 3975 | 5 | -54
Cc1cc(C)n2nc(C(=O)Nc3ccc4c(c3)OCO4)cc2n1 | 6 | 8 | 9 | 5.8 | 22219* | -4 | -52
COc1ccccc1NC(=S)NCc1ccccc1Cl | 8 | 0 | 6 | 2.9 | 3810 | 14 | -28
O=c1cc2c(n[nH]1)-c1ccccc1CC2 | -1 | 7 | -3 | 5.8 | 3629 | 14 | 10
N#CC(c1ccccc1)c1ccc(=O)[nH]n1 (configuration not stated) | -14 | 6 | -1 | 1.7 | 2030 | 7 | -9
O=C(Nc1ccccc1)c1cccc(C(=O)Nc2ccccc2)n1 | 7 | -1 | -11 | 5.2 | 5559 | -5 | -16
C[N+]1(CC2COC3(CCCCC3)O2)CCCC1 (configuration not stated) | 2 | 2 | -5 | 8.8 | 11027 | 14 | -36
O=C(CC1C(=O)NCCN1Cc1cccc(Oc2ccccc2)c1)NCCn1cccn1 (configuration not stated) | 9 | -4 | 8 | 5.6 | 2663 | 12 | -7
O=C(COC(=O)c1cccnc1Cl)Nc1ccc(N2CCCCC2)cc1 | 8 | 3 | / | 6.5 | 3679 | 8 | -20
CC(=O)Nc1ccc(-c2ccc(NC(C)=O)c(O)c2)cc1O | 5 | 2 | -3 | -0.6 | 4868 | -2 | -41
CN1CCSc2ccc(C(=O)NCc3ccccc3)cc21 | 10 | 16 | 0 | 2.0 | 6657 | -5 | -17
COc1cc(C2(c3ccc(O)c(OC)c3)C(=O)Nc3c(Br)cc(Br)cc32)ccc1O | -1 | -6 | -12 | -12 | 4489 | -16 | -15
CC(C(=O)N1CCOCC1)N1C(=O)c2cccc3cccc(c23)C1=O (configuration not stated) | 13 | -6 | 3 | 1.3 | 2298 | 5 | -11
O=C(Cc1ccccc1)NCC(=O)N/N=C/c1cccs1 | / | / | -4 | / | 4906 | / | -14
CCN1CCC(NC(=O)Nc2cc(Cl)ccc2OC)CC1 | 7 | 8 | -6 | -0.7 | 2006 | 3 | 5
O=S(=O)(CCc1nc2ccccc2s1)c1ccc(Cl)cc1 | 3 | 5 | -4 | 6.8 | 5903 | 4 | -10
C=CCn1c(=C(C#N)C(=O)c2ccccc2)sc(=Cc2ccc(C)o2)c1=O | 0 | 4 | / | 5.6 | / | 6 | /
O=C(CN(Cc1ccccc1F)C(=O)Cn1nnc(-c2cccs2)n1)NC1CCCCC1 | 6 | 11 | 1 | 2.5 | 9412 | 6 | -70
CCC1CCCCN1CCCNC(=O)c1csc2c1CCCCC2 (configuration not stated) | -1 | 1 | 1 | 5.0 | 6300 | 8 | -19
COc1ccc(C)cc1N(C(=O)COc1ccccc1)c1nc2ccccc2s1 | -2 | 4 | -6 | 1.0 | 10457 | 21 | -9
Cc1c(NC(=O)Nc2ccc3c(c2)OCO3)c(=O)n(-c2ccccc2)n1C | 7 | -3 | 6 | 3.9 | 8767 | 13 | -4
COc1ccccc1C(=O)c1cc2ccc(O)cc2oc1=O | / | / | 5 | / | 3983 | / | -10
Cc1nnc(SCC(=O)N2CCN(c3ccccc3)CC2)n1-c1ccccc1 | -1 | -2 | -14 | 5.9 | 3175 | -3 | -6
COC(=O)c1ccc(NC(=S)NCCc2ccc(OC)cc2)cc1 | 5 | 12 | / | 0.0 | 3685 | 3 | -9
O=C(COC(=O)/C=C/c1ccc([N+](=O)[O-])cc1)Nc1ccc2[nH]c(=O)[nH]c2c1 | 1 | -3 | / | 5.9 | 4642 | 6 | -21
NC(=O)CSc1nnc(NC(=O)c2ccc3ccccc3c2)s1 | 10 | 2 | -15 | 2.4 | ? | 1 | -62
CCN(CC)CCN(C(=O)c1cc2ccccc2cc1OC)c1nc2ccc(OC)cc2s1 | -4 | 2 | -4 | -5.1 | 5611 | 18 | -3
CCOC(=O)c1sc(NC(=O)CSc2nccn2C)nc1C | 16 | 12 | 4 | -0.9 | 5967 | 6 | -45
C/C=C(/C)C(=O)OC1c2c(ccc3ccc(=O)oc23)OC(C)(C)C1OC(C)=O (configuration not stated) | 7 | 5 | -6 | 7.9 | 4189 | 1 | -1
CCC(=O)N1CCN(c2ccc(NC(=S)NC(=O)c3cc4ccccc4o3)cc2)CC1 | / | / | 6 | -0.5 | 5346 | 72 | -19
Cc1cccc2cc(CN(CC3CCCO3)C(=O)c3cccnc3)c3nnnn3c12 (configuration not stated) | -5 | -13 | 3 | -3.7 | 4403 | 0 | -18
COc1ccccc1N1CC(C)C(=O)NC1=S (configuration not stated) | / | / | 0 | / | 1968 | / | -3
CC(=NNC(=O)c1ccc(C)cc1C)c1ccc2c(c1)OCO2 | -14 | 8 | / | -4.1 | / | -5 | /
CC(=O)Nc1ccc(S(=O)(=O)N(CCc2ccccc2)CC(=O)N/N=C/c2ccc(C(=O)O)cc2)cc1 | / | / | 3 | / | 4309 | / | -13
COc1cccc(NC(=O)COc2ccccc2)c1 | -7 | -4 | -16 | 0.7 | 3807 | 4 | -28
Cc1ccc(NS(=O)(=O)c2ccc(C(=O)OCC(=O)NCC3CCCO3)cc2)cc1 (configuration not stated) | 0 | 7 | 0 | 3.8 | 2166 | 7 | -28
COc1ccc(C(=O)NC(=S)Nc2ccccc2[N+](=O)[O-])cc1OC | 0 | 5 | -4 | 0.8 | 5060 | 7 | -20
Cc1cc(=O)[nH]c2nnc(SCC(=O)N3CC(C)OC(C)C3)n12 (configuration not stated) | -1 | 6 | 3 | 2.2 | 5536 | 10 | -28
Continued.
SMILES | Mtb hypoxia rep | Mtb hypoxia rep growth | BJeLR lethal | Sa RN4220 lethal | Autofluor counter | ugtP null kill | PrP 5UTR inh
Cc1c(NC(=O)C2(c3ccccc3)CCCC2)c(=O)n(-c2ccccc2)n1C | / | / | -3 | -1.0 | / | -1 | -23
CN(Cc1ccccc1)C(=O)c1ccccc1C(=O)OCC(=O)N(Cc1ccccc1)C(C)(C)C | 2 | 9 | / | 3.4 | 5929 | -6 | /
COc1cc(CC(=O)Nc2cccc(C(F)(F)F)c2)cc(OC)c1OC | 9 | 6 | 5 | 3.1 | 2301 | -5 | -17
COc1ccc(/C=C(\NC(=O)c2ccc([N+](=O)[O-])cc2)C(=O)NCCN2CCOCC2)cc1 | -16 | 0 | -7 | 3.8 | 3144 | 4 | 11
CC(=O)Nc1ccc(-c2csc(NC(=O)C3CCN(S(=O)(=O)c4cccs4)CC3)n2)cc1 | -11 | 2 | 13 | 2.9 | 2108 | -8 | -27
CCCCCCCCn1c(=O)c(C(=O)OCC)c(O)c2ccccc21 | / | / | 2 | 16 | 2617 | -12 | -34
O=C(NNS(=O)(=O)c1ccccc1)c1ccc(F)cc1 | 8 | 8 | -3 | 0.0 | 3642 | 7 | -13
CS(=O)(=O)Nc1ccc(C(=O)Nc2ccccc2-c2ccccc2)cc1 | 10 | 8 | -5 | -1.3 | 3731 | -2 | -14
CN(CC(=O)Nc1ccc(Cl)c(Cl)c1)C(=O)C1CCCC1 | 4 | -5 | / | -1.0 | 3699 | 0 | -8
CC1Sc2ccc(S(=O)(=O)NCCc3ccc(S(N)(=O)=O)cc3)cc2NC1=O (configuration not stated) | 3 | 7 | -3 | 0.6 | 5367 | -5 | -1
CC(=NO)c1cc(C(C)(C)C)c(O)c(C(C)(C)C)c1 | 3 | -1 | / | -1.5 | / | 9 | /
CCN(c1ccccc1)S(=O)(=O)c1ccc(Cl)c(NC(=O)Nc2ccc(Cl)cc2C#N)c1 | 5 | 6 | 9 | -6.2 | 1968 | -31 | -11
COc1cc(Br)c(CN2CCCN(C)CC2)cc1OC | 9 | 9 | 8 | 0.7 | 3508 | 7 | -22
NC1=NC(c2ccc(F)cc2)n2c(nc3ccccc32)N1 (configuration not stated) | 10 | 3 | 5 | 6.3 | 5708 | 1 | -19
CC(C)(C)NS(=O)(=O)c1ccc(NC(=O)CS(=O)(=O)Cc2ccccc2)cc1 | -2 | -4 | -2 | 6.2 | 4807 | 6 | -1
COc1ccc(C2CC(=O)C3=C(C2)Nc2ncnn2C3c2ccccc2C)c(OC)c1 (configuration not stated) | -14 | -1 | -8 | 5.2 | 6694 | -10 | -29
COc1cc(S(=O)(=O)Nc2cccc(C(=O)O)c2)c(OC)cc1Cl | 5 | 2 | -17 | 0.7 | 20274* | 3 | -2
Cn1cnc2cc(NCc3cccs3)ccc21 | 3 | -1 | -4 | 6.8 | 5005 | 4 | -45

Compound activity deposited in PubChem BioAssay by several laboratories.
